From PubChem BioAssay
miR-21 reporter = qHTS Assay for Modulators of miRNAs and/orActivators of miR-21 | Potency, µM (doses to about 38.3 µM), for inactives: at the highest dose reporter change, positive = more light | HeLa miR-21 FLuc reporter, luciferase, 48 h | 340,000 tested, under 10 active | AID 2288, 2010; active = well fitted rising curve with a large enough effect; inconclusive = small, poorly fitted or top-dose-only effect; inactive = no such curve, though single readings can be large or run the other way;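 also: % of control where 0% means no effect; miR-21 action dims this reporter so a rising signal means less miR-21 action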
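HeLa cells stably expressing CMV-driven firefly luciferase with a downstream miR-21 binding sequence, endogenously expressing miR-21, were treated with titrations (up to about 40uM final) for 48 hours at 37 degree Celsius. Luciferase luminescence was read after lysis.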
Rango complex inh = qHTS Assay for Inhibitors of Rango (Ran-regulated importin-beta cargo) - Importin beta complex formation. Importin subunit beta-1 (Homo sapiens), Q14974. Rango CFP/YFP FRET sensor + importin beta, 45 min. Potency, µM (titrated, usually from 92.2 µM), for inactives: at the top dose inhibition of complex formation. hit rate 0.031% among 340,000. AID 540263, 2011; active = rising FRET ratio curve, often small or poorly fitted; inconclusive = mostly compound fluorescence or quenching in the first reads; inactive = flat curves in all reads;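 also: potency is read from the fitted curve at half-maximal effect; 0% = DMSO wells and 100% = buffer wells lacking importin beta; nearly all actives have a fitted effect of over 15% in size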
Target sequence (Q14974 whole entry, looked up): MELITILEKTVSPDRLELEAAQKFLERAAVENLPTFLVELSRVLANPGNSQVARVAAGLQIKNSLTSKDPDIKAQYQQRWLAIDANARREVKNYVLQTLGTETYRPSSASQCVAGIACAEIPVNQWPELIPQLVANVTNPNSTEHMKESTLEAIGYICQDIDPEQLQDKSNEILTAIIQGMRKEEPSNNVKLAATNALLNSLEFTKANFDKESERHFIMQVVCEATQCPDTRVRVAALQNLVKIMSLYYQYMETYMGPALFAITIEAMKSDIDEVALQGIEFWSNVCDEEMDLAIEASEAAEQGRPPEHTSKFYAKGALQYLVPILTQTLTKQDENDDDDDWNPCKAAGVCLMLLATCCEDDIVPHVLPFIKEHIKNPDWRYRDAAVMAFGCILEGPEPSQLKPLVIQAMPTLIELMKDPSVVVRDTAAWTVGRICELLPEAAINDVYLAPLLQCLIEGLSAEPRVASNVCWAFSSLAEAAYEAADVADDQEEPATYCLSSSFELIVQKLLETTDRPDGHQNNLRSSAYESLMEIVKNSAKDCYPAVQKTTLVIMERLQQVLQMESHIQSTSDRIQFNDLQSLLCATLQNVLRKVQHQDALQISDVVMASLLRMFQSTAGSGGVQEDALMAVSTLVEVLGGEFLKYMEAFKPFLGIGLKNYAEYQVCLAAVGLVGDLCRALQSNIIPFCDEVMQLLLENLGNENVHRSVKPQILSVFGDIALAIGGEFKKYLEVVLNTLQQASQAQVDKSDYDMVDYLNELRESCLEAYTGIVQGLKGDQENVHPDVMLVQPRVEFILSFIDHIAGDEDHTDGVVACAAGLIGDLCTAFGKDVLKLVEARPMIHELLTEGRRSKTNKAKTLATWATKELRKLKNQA
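FRET biosensor Rango (snurportin 1 IBB between N-terminal EYFP and C-terminal Cerulean), 50 nM in PBS/1 mM DTT/0.02% Tween-20/0.1% BSA, preincubated 5 min RT with compound; 0.125 microM importin beta added, 45 min RT, CFP/YFP FRET ratio read.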
Rango release inh = qHTS Assay for Inhibitors of RanGTP induced Rango (Ran-regulated importin-beta cargo) - Importin beta complex dissociation | hit rate 0.071% among 340,000 | AID 540253, 2011 | Biochemical FRET Rango-importin beta, RanGTP-induced dissociation | Potency, µM (series often up to 46.1 µM), for inactives: top-dose activity change, negative = inhibition | Snurportin-1 (Homo sapiens) + GTP-binding nuclear protein Ran (Homo sapiens) + Importin …; active means falling FRET ratio curve, often poorly fitted, with flat reads before Ran was added; inconclusive means other falling curves, or compound fluorescence or quenching; inactive means flat or rising ratio curve;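 also: potency is read from the fitted curve at half-maximal effect; % of control where 0% means no effect; nearly all actives have a fitted effect of over 45% in size; -100% = wells without RanGTP and RCC1; the record marks most hits as doubtful in a second field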
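Quantitative HTS using a FRET biosensor: 0.1 uM Rango, 0.25 uM importin beta, 0.6 uM Ran, 2 mM GTP, 0.2 uM RCC1 final, PBS with DTT, Tween-20 and BSA. Post-read taken 45 min after Ran addition.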
GLA inh pH 4.5 = qHTS Assay for Inhibitors of Human alpha-Galactosidase at pH 4.5 | 230,000 tested, under 10 active | activity change, negative = inhibition, % at 105 µM | Alpha-galactosidase A (Homo sapiens), P06280 | purified enzyme, 4-MU-alpha-Gal fluorescence, pH 4.5; inconclusive = small, poorly fitted or top-dose-only inhibition, or a rising curve; inactive = flat fitted curve, though single readings scatter; no compound was filed as active;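 also: 0% = full activity with enzyme and -100% = basal without enzyme; dose as in the result columns while the protocol names 77 µM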
* marks the source's active call; other numbers are inactive results; ? = inconclusive; . = not tested or not shown; & = joins results of further samples. An excerpt (hit frequency here may not be typical).

The line under a structure holds: miR-21 reporter, Rango complex inh, Rango release inh, GLA inh pH 4.5
O=C(NCCO)c1nsnc1NCCCl
    -2%, 7.6%, 3%, 1
O=C1NC(=O)C2(Cc3ccccc3N3CCCC32)C(=O)N1 (stereo not drawn)
    2%, ?, ?, 11
CC(C)(C)C(=O)N1Cc2cnnn2-c2ccccc2C1C#N (stereo not drawn)
    ., 0.2%, 0%, .
N=c1sccn1Cc1ccccc1F
    -2%, -1.5%, 10%, .
COC(=O)C1=C(c2ccc(Cl)c(C(F)(F)F)c2)C[C@@H]2CC[C@H]1N2C(=O)NCCCOC(C)C
    ., 0.9%, 3%, .
COc1ccc(C)cc1NC(=O)N1CCC2(CC1)OCCO2
    -4%, -0.4%, -5%, 8
Cc1ccccc1CS(=O)(=O)Cc1ccc(C(=O)N2CCC3(CC2)OCCO3)o1
    4%, -2.6%, -12%, -11
O=C(CCN1C(=O)COc2ccccc21)N1CCC2(CC1)OCCO2
    -11%, -0.3%, 14%, 3
COC(=O)COc1cc(C)cc2oc(=O)c3c(c12)CCCC3
    -1%, -0.3%, 0%, 6
Cc1cc2c(s1)NC(=O)CN=C2c1cccs1
    20%, -4.6%, -2%, 1
CCc1ccccc1NC(=O)CSc1nnc([C@@H](N)Cc2c[nH]c3ccccc23)o1
    0%, 0.2%, 3%, -6
CC(C)CCC1(CCO)C(=O)NC(=S)NC1=O
    ., 3.5%, 13%, .
O=c1c2ccccc2nc(/C=C/c2ccc3c(c2)OCO3)n1-c1cccc(O)c1
    22%, ?, ?, -3
O=C(c1ccc2c(c1)OCO2)C1CCCN(CC2CCCCC2)C1 (stereo not drawn)
    -1%, -2.7%, -18%, -4
c1ccc(C2CC3CC(c4ccco4)N2O3)cc1 (stereo not drawn)
    -5%, ?, -1%, 2
C/C(=N\Nc1cccc2ccccc12)c1c(O)n(Cc2ccccc2)c(=O)[nH]c1=O
    ?, ?, ?, -7
O=C1/C(=C/c2cc([N+](=O)[O-])ccc2Cl)N2CCC1CC2
    -15%, 3.6%, 5%, 7
CCCCCc1cc(O)c2c3c(c(=O)oc2c1)CN(C)CC3
    -10%, -1.1%, 19%, -3
Cc1sc2ncnc(N3CCC(C(=O)Nc4ccc(C#N)c(Cl)c4)CC3)c2c1C
    ., -0.6%, -4%, .
CCOC(=O)C1SC2(C(F)F)CC1(O)c1c(c(OC)c3occc3c1OC)O2 (stereo not drawn)
    -2%, -4.6%, -5%, -8

(further entries)
The line under a structure holds: miR-21 reporter, Rango complex inh, Rango release inh, GLA inh pH 4.5
OC(c1ccccc1)(c1ccccc1)C1CN2CCC1CC2 (stereo not drawn)
    6%, -1.1%, -8%, -5
COc1ccc(C(=O)C2CCCN(C3CSCCSC3)C2)cc1OC (stereo not drawn)
    1%, -0.8%, -12%, 7
Cc1ccc(NC(=O)CSc2nnc([C@@H](N)Cc3c[nH]c4ccccc34)o2)c(C)c1
    0%, -6.0%, -6%, -2
c1ccc2c(c1)Nc1ccccc1S2
    -10%, -3.8%, -17%, 17
O=C1C=C2C=C[C@H]3C[C@]2(O1)[C@@H]1CCCCN13
    ?, -1.0%, -3%, 1
C=CCn1c(O)c(C(C)=Nc2cccc(C(=O)O)c2)c(=O)[nH]c1=O
    3%, 0.1%, -4%, 6
CC12CC[C@H]3[C@@H](CCC4(O)C[C@H](O)CCC34/C=N/NC(=O)c3ccccc3Cl)C1(O)CCC2C1=CC(=O)OC1 (stereo partly drawn)
    3%, 3.8%, -14%, -4
CCN(CC)c1ccc(N=Cc2c(O)n(-c3ccccc3C)c(=O)[nH]c2=O)cc1
    1%, ?, ?, -4
O=C(Nc1cccc(Br)c1)c1c(O)c2c(n(Cc3ccccc3)c1=O)CCCC2
    0%, 3.6%, -15%, -7
COC(=O)C1=C(c2ccc(OC(F)(F)F)cc2)C[C@@H]2CC[C@H]1N2C(=O)NCCc1ccccc1
    ., -1.1%, 1%, .
Oc1ccc(Cl)c(Cl)c1Cl
    ., -0.5%, 1%, .
COC(=O)C1=C(c2ccc(F)cc2OCc2ccccc2)C[C@@H]2CC[C@H]1N2C(=O)NC1CCN(Cc2ccccc2)CC1
    ., 0.0%, 29%, .
CN1CCC(C)(O)C2CCCCC21 (stereo not drawn)
    0%, -1.8%, -11%, 3
COc1ccc2c(CN3CC=C(c4ccccc4)CC3)cc(=O)oc2c1
    -6%, -1.6%, -12%, 4
CC(C)OP(=O)(OC(C)C)C(O)c1ccccc1F (stereo not drawn)
    -4%, 1.2%, 5%, -1
O=C(Nc1ccc(F)cc1)OC1CN2CCC1CC2 (stereo not drawn)
    -11%, -0.1%, -5%, -15
O=C1Nc2ccccc2/C1=C/c1nc2ccccc2c(=O)n1-c1ccc(O)cc1
    12%, 0.5%, 4%, -8
CNC(C)(C)Cc1ccccc1
    ., 3.0%, 2%, -2&5
CCOC(=O)c1c(N)n(Cc2ccccc2)c2nc3ccccc3nc12
    1%, ?, -14%, ?
NCC1(c2ccc3c(c2)OCCO3)CCCC1
    3%, 2.4%, 2%, -1

Results in Rango complex inh, for some of the entries so far:
Compound | Rango complex inh
CCN(CC)c1ccc(N=Cc2c(O)n(-c3ccccc3C)c(=O)[nH]c2=O)cc1 | ?
O=C(Nc1cccc(Br)c1)c1c(O)c2c(n(Cc3ccccc3)c1=O)CCCC2 | 3.6%
COC(=O)C1=C(c2ccc(OC(F)(F)F)cc2)C[C@@H]2CC[C@H]1N2C(=O)NCCc1ccccc1 | -1.1%
Oc1ccc(Cl)c(Cl)c1Cl | -0.5%

Among those listed so far, these have a cyano group:
The line under a structure holds: miR-21 reporter, Rango complex inh, Rango release inh, GLA inh pH 4.5
CC(C)(C)C(=O)N1Cc2cnnn2-c2ccccc2C1C#N (stereo not drawn)
    ., 0.2%, 0%, .
Cc1sc2ncnc(N3CCC(C(=O)Nc4ccc(C#N)c(Cl)c4)CC3)c2c1C
    ., -0.6%, -4%, .

Carrying on:
The line under a structure holds: miR-21 reporter, Rango complex inh, Rango release inh, GLA inh pH 4.5
Cc1ccc(-c2cc(-c3ccc(C)cc3)[n+](-c3ccccc3)c(-c3ccc(C)cc3)c2)cc1
    ., ?, -15%, .
CC1CC(NC(=O)C2C3CCC(O3)C2C(=O)O)CC(C)(C)C1 (stereo not drawn)
    13%, 0.9%, 7%, -2
Cc1nc2ccc(N3CCN(C)CC3)cc2nc1C
    -34%, ?, ?, -2
Fc1ccccc1CCNCc1cccc(Cl)c1Cl
    -16%, 1.5%, 0%, -17
CC(Cc1ccccc1)N1Cc2ccccc2C1 (stereo not drawn)
    -19%, 3.3%, -8%, .
COP(=O)(NC(=O)C(Cl)(Cl)Cl)OC
    4%, 2.0%, 6%, -4
CNC(=S)N/N=C1\C2CN3CCN(C2)CC1(c1ccccc1)C3
    -3%, -0.6%, 5%, -6
Cc1cc(C)n(-c2ccc(NN=C(C#N)C#N)cc2)n1
    ?, -3.0%, 14%, ?
CCN(CC)C(=O)N[C@H]1C[C@@H]2c3cccc4[nH]cc(c34)C[C@H]2N(C)C1
    -12%, ?, -12%, .
Cc1cc([P+](=O)O)c(C)n1-c1ccc(Br)cc1
    -1%, 0.8%, -8%, 4
CC1CN=C(NC(C)c2ccccc2)S1 (stereo not drawn)
    -10%, -0.1%, 15%, -16
CN(C)CCSCc1nnc2n1-c1ccc(Cl)cc1C(c1ccccc1Cl)=NC2
    ., 3.0%, 8%, .
O=C1NC(=O)C(CCc2ccncc2)(CCc2ccncc2)C(=O)N1C1CCCCC1
    -1%, -2.8%, -2%, 0
CCOc1ccc(N2C(=O)NC(=O)/C(=C\c3cc(OC)c(OC)cc3[N+](=O)[O-])C2=O)cc1
    -4%, -2.4%, -10%, .
CCN1CCN(C(=O)COc2ccc(S(=O)(=O)NC(C)C)cc2)CC1
    -2%, 0.1%, -6%, 3
O=c1c2ccccc2nc(N2CCCC2)n1-c1ccc(Cl)cc1
    -2%, -3.5%, 0%, 7
O=c1[nH]c(=O)n(-c2cccc3ccccc23)c(O)c1/C=N/N1CCCCC1
    -1%, 2.0%, 0%, 2
CC(c1nccs1)N(C)C(=O)c1cn(Cc2cccc3ccccc23)nn1 (stereo not drawn)
    -48%, -3.0%, 1%, .
CCCCn1c(O)c(C(C)=Nc2c(C)n(C)n(-c3ccccc3)c2=O)c(=O)[nH]c1=O
    -7%, 0.1%, 4%, 0
COc1cc(/C=C/c2nc3ccccc3c(=O)n2-c2ccc(O)cc2)ccc1O
    18%, ?, ?, .

Next section.
The line under a structure holds: miR-21 reporter, Rango complex inh, Rango release inh, GLA inh pH 4.5
COc1ccc(Br)cc1CN1CCN(CCO)CC1
    5%, -3.3%, 0%, 6
COc1ccc(CN2C(=O)CC(=O)NC2=O)cc1
    -2%, 0.4%, -3%, -1
Nc1ccncc1
    -1%, -3.5%, -28%, 6&2&0&-1&2
CCOc1ccc(CC2C(=O)NC(=O)N(c3ccc(CC)cc3)C2=O)cc1 (stereo not drawn)
    -2%, -6.1%, -24%, 5
Cc1ccc(C(O)(c2ccc(C)c(C)c2)C2CN3CCC2CC3)cc1C (stereo not drawn)
    ?, 3.4%, 8%, .
Cn1c(O)c(C=NCCN2CCN(C(=O)Nc3ccccc3)CC2)c(=O)n(C)c1=O
    -8%, -0.7%, 9%, -1
CC(C)(C)C(=O)OCC12CCC(O1)C1(C)C(=O)OCC21 (stereo not drawn)
    -2%, 1.1%, 3%, 22
C=C1[C@H]2C[C@H]3[C@H]4N5C[C@]6(C)CCC[C@]47[C@H]([C@H]2O)[C@]3(C[C@]5(O)[C@H]67)[C@@H]1O
    ., 2.1%, 5%, .
CN1CN(c2cccc([N+](=O)[O-])c2)CN=C1N[N+](=O)[O-]
    -2%, 0.4%, 12%, 2
CN1CCN(C(=O)COc2ccc(S(=O)(=O)NC3CCCCC3)cc2Cl)CC1
    -6%, -0.8%, -3%, .
CCOC(=O)C(O)(c1ccc(NC(=S)NC(=O)c2ccc(Cl)cc2Cl)c(C)c1)C(F)(F)F (stereo not drawn)
    ?, -0.9%, 1%, -13
C=CCN1CC[C@]23c4c5ccc(O)c4OC2[C@H](O)CC[C@@]3(O)[C@H]1C5 (stereo partly drawn)
    ., -0.3%, -8%, .
COCCOC(=O)c1c(N)n(Cc2ccccc2)c2nc3ccccc3nc12
    7%, ?, ?, ?
COc1ccc(CC(=O)N(CCN(C)C)CC2CCCN(Cc3ccccc3F)C2)cc1 (stereo not drawn)
    -7%, -2.8%, -16%, .
O=[N+]([O-])c1ccc(N2CCCCCC2)c2nonc12
    -39%, ?, ?, .
COc1ccc(CNCCc2ccc3c(c2)OCO3)cc1Br
    -1%, -2.5%, -8%, .
Oc1cc(Cl)ccc1Oc1ccc(Cl)cc1Cl
    ., 3.9%, -17%, -2
C(=NC12CN3CN(CN(C3)C1)C2)c1cccnc1
    2%, -0.6%, 0%, -18
O=C(Cc1ccc(Cl)cc1)NCCN1CCN(C(=O)Cc2ccc(Cl)cc2)CC1
    3%, -5.6%, 30%, .

As entered above.
O=C(Cc1ccc(Cl)cc1)NCCN1CCN(C(=O)Cc2ccc(Cl)cc2)CC1 in miR-21 reporter = 3%
COc1ccc(CN2C(=O)CC(=O)NC2=O)cc1 in GLA inh pH 4.5 = -1
COc1ccc(Br)cc1CN1CCN(CCO)CC1 in miR-21 reporter = 5%
O=[N+]([O-])c1ccc(N2CCCCCC2)c2nonc12 in miR-21 reporter = -39%
C=CCN1CC[C@]23c4c5ccc(O)c4OC2[C@H](O)CC[C@@]3(O)[C@H]1C5 (stereo partly drawn) in Rango complex inh = -0.3%
CCOc1ccc(CC2C(=O)NC(=O)N(c3ccc(CC)cc3)C2=O)cc1 (stereo not drawn) in Rango complex inh = -6.1%
COc1ccc(CNCCc2ccc3c(c2)OCO3)cc1Br in miR-21 reporter = -1%
